# Source: PubChem BioAssay
# Beta2AR agonist = beta2AR agonists driving receptor internalization, primary screen, cell-based, FAP fluorogen, flow cytometry | AID 504454, 2011 | 0.43% of 340,000 active | Am2.2-beta2AR cells; reference of the scale not given here | response, % (concentration not given with the values);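 active means response above a set limit, near 3 SD of response in nonfluorescent compounds, cut at about 42% in these data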;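 further: stock transfer was 100 nL into about 11 µL; a reference agonist was the positive control; negative values mostly stem from fluorescent compounds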
# T cruzi repl = inhibitors of intracellular T. cruzi growth, primary screen, luminescence, NIH3T3 host cells; T. cruzi beta-gal in NIH3T3, 90 h; inhibition, % (concentration not given with the values); 1.4% of 300,000 active;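 active means mean inhibition across valid replicates above about 55%, limit read from the data; inconclusive means mean below that limit but half or more replicates reach it; inactive means mean below it, under half of replicates reach it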;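 further: signal also drops with host cell toxicity which is not excluded here; 0% = plate median of DMSO wells and 100% = zero luminescence signal; higher percent means less beta-gal luminescence so fewer parasites; stock transfer was 50 nL into about 50 µL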
# rRNA inh HTS = reduced GFP signal of wild-type E. coli, primary screen, bacterial rRNA inhibitor project, GFP/RFP fluorescence, OD600, single point. 1.6% of 350,000 active. GFP signal change (wild-type ribosome), % (concentration not given with the values). E. coli WT GFP vs humanized-ribosome RFP mutants, 24 h; active compounds read low; DMSO median 0, no signal -100;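 active means significant combined selectivity score with lowered wild-type GFP, culture density cut under 30%, mutant RFP and density less affected; inactive means any of these conditions unmet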; further: one replicate is shown; some compounds called inactive have numbers as strong as hits
# Beta apoptosis = inhibitors of cytokine-induced beta cell apoptosis, primary screen, luminescence. 0.8% of 300,000 active. INS-1E cytokine-induced death, ATP luminescence, 48 h; percent of positive-control rescue, neutral wells zero. protection from apoptosis, % (test concentration not listed). AID 435005, 2010;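 active means all replicates at 75% or more, or half of them and the mean; inconclusive means half reach 75% but not the mean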;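 further: 0% = cytokine-treated negative control wells and 100% = positive control rescue; higher means more ATP so stronger rescue from cytokine killing; wells of about 40 µL received 100 nL stock; the first replicate is given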
# ALR inh = inhibitors of human ALR sulfhydryl oxidase, primary screen, biochemical, H2O2 detection, HRP-luminol luminescence, single point. purified ALR, DTT oxidation. inhibition, % (concentration not given with the values). 3.8% of 290,000 active;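 active means mean and each replicate at 75% or more; inconclusive means only one of the two met; inactive means neither met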;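 further: stock transfer was 7.5 nL into about 7.5 µL; 0% = neutral wells and 100% = wells with inactivated enzyme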
# Calb FLC = C. albicans growth inhibition with fluconazole, primary screen, CaCi-2 strain, Alamar Blue fluorescence; C. albicans CaCi-2 (fluconazole-resistant clinical isolate) + fluconazole, 48 h; growth inhibition, % (test concentration not listed); 0.57% of 300,000 active; AID 1979, 2009;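 active means most replicates above 75%; inconclusive means exactly half above 75%; inactive means most below 75%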;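 further: all wells also contain fluconazole at 8 µg/ml as a sub-toxic cotreatment; 0% = median of DMSO wells and 100% = median of geldanamycin control wells; wells of about 8 µL received 7.5 nL stock; the first replicate is given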
# LANA-H2A inh = blockers of LANA interaction with H2A/H2B – biochemical, FP readout, HTS, primary screen | Protein LANA1 (Human herpesvirus 8 type P (isolate GK18)), Q9QR71 | cell-free LANA-H2A/H2B peptide, fluorescence polarization | inhibition, % (concentration not given with the values) | 0.6% of 320,000 active | AID 2629, 2010; in the data active means inhibition mostly above about 10%, no sharp cut-off; inactive means mostly below about 6.7%;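 further: stock transfer was 7.5 nL into about 10 µL; 0% = median of vehicle wells and 100% = median of positive control wells; one replicate is shown; the record names a cut of 25% in any replicate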
# Target sequence (Q9QR71 whole entry, looked up): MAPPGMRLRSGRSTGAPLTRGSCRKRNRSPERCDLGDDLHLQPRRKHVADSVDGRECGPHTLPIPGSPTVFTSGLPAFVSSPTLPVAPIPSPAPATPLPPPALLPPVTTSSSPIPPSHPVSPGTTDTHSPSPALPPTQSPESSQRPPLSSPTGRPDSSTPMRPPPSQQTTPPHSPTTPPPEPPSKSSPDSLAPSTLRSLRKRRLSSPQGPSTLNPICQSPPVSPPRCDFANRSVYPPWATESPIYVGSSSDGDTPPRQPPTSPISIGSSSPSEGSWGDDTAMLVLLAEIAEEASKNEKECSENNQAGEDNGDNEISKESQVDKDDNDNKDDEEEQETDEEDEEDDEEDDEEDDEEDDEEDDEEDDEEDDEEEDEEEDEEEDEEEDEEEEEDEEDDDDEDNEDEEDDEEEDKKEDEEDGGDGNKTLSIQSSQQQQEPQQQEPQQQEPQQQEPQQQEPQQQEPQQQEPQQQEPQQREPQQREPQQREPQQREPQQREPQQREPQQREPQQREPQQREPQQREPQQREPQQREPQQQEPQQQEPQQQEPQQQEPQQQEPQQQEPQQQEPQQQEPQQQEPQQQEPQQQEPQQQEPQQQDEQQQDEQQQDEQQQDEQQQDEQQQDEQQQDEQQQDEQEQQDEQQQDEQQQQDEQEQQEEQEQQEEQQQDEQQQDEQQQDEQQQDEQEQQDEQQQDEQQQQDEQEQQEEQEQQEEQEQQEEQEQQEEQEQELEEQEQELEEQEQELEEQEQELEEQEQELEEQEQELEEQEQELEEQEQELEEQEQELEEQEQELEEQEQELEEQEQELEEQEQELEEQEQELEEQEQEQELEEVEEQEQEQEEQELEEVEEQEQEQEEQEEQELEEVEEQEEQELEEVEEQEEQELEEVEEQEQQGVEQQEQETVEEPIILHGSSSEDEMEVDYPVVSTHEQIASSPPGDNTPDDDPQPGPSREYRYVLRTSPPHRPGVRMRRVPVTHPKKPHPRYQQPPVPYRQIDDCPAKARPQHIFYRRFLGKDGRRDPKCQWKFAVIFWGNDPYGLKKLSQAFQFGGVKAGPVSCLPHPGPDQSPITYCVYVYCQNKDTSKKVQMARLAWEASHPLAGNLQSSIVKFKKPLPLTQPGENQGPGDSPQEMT
# A1 inh = caspase 3/7 activation in MEF A1-2A-BIM cells, primary screen, A1 inhibitor project, cell-based, luminescence, HTS; Caspase-Glo 3/7 luminescence, 3 h; percent of clofoctol response, vehicle zero; AID 2462, 2010; 0.066% of 330,000 active; caspase activation, % (concentration not given with the values);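 active means over half of replicate activation scores above 10%, or exactly half above 10 with the replicate mean above 10; inconclusive means replicate mean below 10 yet half the replicates above 10; inactive means over half of replicates below 10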;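 further: wells of about 30 µL received 50 nL stock; many hits fall short of the cut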
# rRNA inh HTS OD600 = second read-out of rRNA inh HTS, no call of its own (marks repeat the call); OD600 change, %; measured here: OD600 growth;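 optical density of the mix in the first replicate; 0 = DMSO median and -100 = no signal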
# rRNA inh HTS RFP = further read-out of rRNA inh HTS, marked with its call; RFP signal change, %; measured here: RFP humanized mutant strains;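 first replicate; 0 = DMSO median and -100 = no signal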
# An asterisk follows results filed as active; ? = inconclusive; / = no result given.
SMILES,Beta2AR agonist,T cruzi repl,rRNA inh HTS,rRNA inh HTS OD600,rRNA inh HTS RFP,Beta apoptosis,ALR inh,Calb FLC,LANA-H2A inh,A1 inh
Cn1c(=O)c2c(ncn2CC(=O)OCCCC(=O)c2ccc(Br)cc2)n(C)c1=O,-5,/,/,/,/,-1,-2,/,5.7,-1.5
N#Cc1nc(-c2cccc3ccccc23)oc1N1CCCCC1,-1,-1,/,/,/,-2,-6,8,-2.0,-1.0
COc1ccc(CNC(=O)COc2ccc(S(=O)(=O)N3CCOCC3)cc2)cc1,-2,2,10,-9,0.3,/,-8,-5,11,-0.4
O=C1C2C3c4ccccc4C(c4ccccc43)[C@@H]2C(=O)N1c1cccnc1 (stereo partly drawn),0,-13,3,2,-0.2,-4,-4,-2,-4.3,0.1
N#Cc1ccsc1NC(=O)c1ccccn1,-4,-14,/,/,/,4,-8,-11,-3.4,-0.6
Cc1ccc(NC(=O)CSc2nnc(Cn3c(=O)sc4ccccc43)n2C)cc1Cl,-11,3,4,9,-0.1,-1,-18,1,-2.1,0.0
O=C(c1ccccc1)N1CCN2C(=O)c3ccccc3C12c1ccc(Cl)cc1 (stereo not drawn),3,-6,/,/,/,-7,4,-1,2.8,0.5
CSc1nc2c(cnn2-c2ccccc2)c(=O)n1N,-2,-12,-1,-1,1.0,-3,-7,8,2.3,-0.7
Cc1ccccc1OCc1nnc(SCC(=O)N2c3ccccc3Sc3ccc(Cl)cc32)o1,-21,41,/,/,/,10,-12,-4,2.6,-0.2
O=C(Cc1ccc(Cl)cc1Cl)NCc1cccnc1,2,-2,3,7,-2.8,-20,/,4,-3.9,1.6
CC1CCC(NC(=O)c2ccc3nc[nH]c3c2)CC1 (stereo not drawn),-9,1,/,/,/,1,-15,13,0.4,-0.2
O=C(NCc1ccccc1)C1CCN(C(=O)Cc2ccccc2)CC1,-3,-7,4,10,2.3,/,-12,-15,-2.8,-0.1
O=C(CS(=O)(=O)Cc1ccccc1)Nc1ccc2c(c1)OCO2,6,-20,5,-8,-0.5,-3,-19,-9,-1.3,1.0
O=C(CC(Nc1cccc(Cl)c1Cl)C(=O)OCC(=O)c1cccs1)c1ccccc1 (stereo not drawn),2,-9,/,/,/,-10,-1,-4,1.3,-0.5
N/C(CCS(=O)(=O)c1ccc(Cl)cc1)=N\OC(=O)c1ccccc1Cl,11,-24,-15,-1,2.8,/,4,4,0.2,2.9
O=C(Nc1nccs1)c1ccc(Cl)nc1,5,-14,3,8,4.6,1,-5,-2,2.9,-1.2
CC1(C)Cc2ccccc2C(=C(C#N)C#N)N1,-3,-12,/,/,/,-7,/,-1,0.2,0.5
Cc1sc2ncnc(N3CCC(C(=O)NNC(=O)c4ccc(Cl)cc4)CC3)c2c1C,19,20,1,-10,0.9,-4,10,40,2.1,0.8
CC(C)n1c(=S)[nH]c2ccccc21,-11,-18,/,/,/,3,22,0,-2.1,0.8
CCCn1nc(NS(=O)(=O)c2ccccc2)c2cc3ccccc3nc21,0,7,/,/,/,1,9,?,-0.9,0.2
COCCn1c(-c2ccco2)nc2nc3ccccc3nc21,13,-8,/,/,/,6,/,8,2.4,-0.4
Cc1ccc(Cl)cc1N1CCN(S(=O)(=O)c2c(C)noc2C)CC1,3,26,-3,-15,-1.6,/,-1,5,-0.5,-0.3
CCOC(=O)NC(CC(=O)O)c1ccc(OC)c(OC)c1 (stereo not drawn),3,-12,/,/,/,/,1,-10,0.1,0.0
COC(=O)c1cc(S(=O)(=O)NCc2ccccc2OC)cn1C,4,-14,7,6,-0.6,1,0,6,0.1,0.7
COc1ccccc1OCc1nnc(SCC(=O)N2CCCCC2)n1-c1ccccc1,0,-1,/,/,/,1,/,-9,-0.3,0.7
COc1cc(-c2nnc(COC(=O)CSc3cc(C)c4ccccc4n3)o2)cc(OC)c1OC,0,-6,/,/,/,2,-10,3,0.4,1.0
Cc1onc(-c2ccccc2)c1C(=O)NNC(=O)c1ccccc1Br,2,/,7,4,-0.6,-5,0,/,2.0,-0.4
COc1cc(NC(=O)c2cc3cccc(OC)c3o2)cc(C(=O)Nc2cccc(C(F)(F)F)c2)c1,21,19,7,8,0.2,24,-13,-3,-7.6,1.3
CCOC(=O)c1cc(CC)sc1NC(=O)c1ccc(N2CCOCC2)c([N+](=O)[O-])c1,-2,-13,5,5,0.5,-2,2,-4,-2.5,-0.5
O=C(CCn1c(=S)[nH]c2ccccc2c1=O)NCC1CCCO1 (stereo not drawn),-9,-20,5,7,0.5,-8,36,13,-13,0.2
COC(=O)c1sccc1-n1cc(C#N)c(=O)n(C)c1=O,-1,-6,-4,-5,0.4,-3,-3,-22,-0.7,-0.3
Cc1ccccc1OCC(=O)Nc1ccc(N2CCN(C(=O)c3ccco3)CC2)cc1,2,9,-4,-15,6.8,2,5,-1,-6.4,-0.2
CCCCNC(=O)[C@H](Cc1c[nH]c2ccccc12)NC(=O)c1ccccc1Cl,1,-25,-9,-13,-3.7,-5,0,-12,-1.5,1.1
Cn1cc(CN2C[C@]3(C)C[C@H]2CC(C)(C)C3)c(-c2ccc3c(c2)OCCO3)n1,1,33,3,1,0.7,-4,-3,-15,9.2,-0.1
Nc1nc2ccc(C(=O)N3CCCCC3)cc2s1,-8,-4,2,7,-0.1,-1,/,-9,6.2,0.4
Cc1ncc(CN2CCCC(C(=O)Nc3ccc(-c4cccc(F)c4)cc3)C2)n1C (stereo not drawn),21,38,-4,-13,0.1,-11,-5,2,-0.4,1.0
COc1ccccc1N(C)S(=O)(=O)c1ccc(C(=O)NCC(C)C)cc1,-3,1,/,/,/,2,-2,58,-4.4,0.2
COCCC(=O)N1CCC(Oc2ccc(C(=O)NCCCC3CCCC3)cc2)CC1,-10,-5,-9,-18,-4.9,5,-4,-4,-2.3,0.4
COc1ccc(CCNC(=O)C/C(C)=N/NC(=O)Cc2cccc3ccccc23)cc1OC,4,4,-9,-12,3.9,-5,-9,0,1.0,0.6
O=C(CCN1C(=O)c2ccncc2C1=O)Nc1cc(F)ccc1F,0,2,25,12,1.6,1,-1,5,-5.1,-0.4
CCNC(=S)N/N=C(\C)c1cccc(C(F)(F)F)c1,3,3,-3,-3,0.7,1,1,-4,0.4,-0.2
COc1ccc(OCc2nnc3n2N=C(c2ccc(Br)cc2)CS3)cc1,-35,8,-14,-24,3.6,3,-6,-4,-8.8,0.2
O=C(NC1=NCCS1)C12CC3CC(CC(C3)C1)C2,-4,-3,4,1,3.9,-2,-10,-3,-3.2,-0.1
Cc1c(C)n(Cc2ccccc2)c2ncnc(NN)c12,-44,5,-4,-11,0.1,-2,-5,-7,-0.1,-0.8
O=C(CN1CCCC1)Nc1cccc(Cl)c1Cl,0,-8,12,7,-2.0,-6,-13,-3,-2.6,0.1
COCC(=O)N(Cc1ccco1)c1nnc(C2CCOC2)s1 (stereo not drawn),-5,1,/,/,/,-6,9,0,-1.1,0.1
CC(C)(C)OC(=O)N[C@@H](C(=O)OC(C)(C)C)c1ccc2ccccc2c1,3,/,19,12,-0.5,-4,-6,/,0.3,2.0
CCCCC[C@H](O)/C=C/[C@H]1CCC(=O)[C@@H]1CCCCCCC(=O)N1CCCCC1CO (stereo partly drawn),21,5,-10,-11,-0.4,-2,0,-3,-0.3,0.8
CN(CC(=O)Nc1cccc(F)c1)C(=O)c1ccc2c(c1)S(=O)(=O)N=C1CCCCCN12,-12,-3,11,8,3.6,-1,-7,7,0.7,0.2
O=C(Cn1ncc2c3ccccc3n(Cc3ccccc3)c2c1=O)NCCCN1CCOCC1,-19,10,7,5,0.9,-3,0,59,-1.8,?
# (continued)
SMILES,Beta2AR agonist,T cruzi repl,rRNA inh HTS,rRNA inh HTS OD600,rRNA inh HTS RFP,Beta apoptosis,ALR inh,Calb FLC,LANA-H2A inh,A1 inh
O=C(CNC(=O)c1cccs1)N=Nc1c(O)[nH]c2ccc([N+](=O)[O-])cc12,-5,-10,12,16,3.0,-3,5,7,1.0,0.9
O=C(CSc1oc(-c2cccs2)nc1S(=O)(=O)c1ccc(F)cc1)NCC1CCCO1 (stereo not drawn),-9,-3,-1,4,-6.2,-3,/,-1,6.0,0.1
CCCc1nc(SCC(=O)Nc2cc(C)on2)c2ccccc2n1,-3,9,/,/,/,/,-12,1,-10,0.8
COc1ccc(CC(=O)NNS(=O)(=O)c2ccccc2[N+](=O)[O-])cc1OC,0,-2,4,13,-1.3,-3,-4,-1,3.0,0.3
CC(OC(=O)c1nsc(Cl)c1Cl)C(=O)NC1CCCCC1 (stereo not drawn),-2,-8,4,6,-2.3,-3,-8,-2,0.3,0.2
CCOc1cc(N2CCOCC2)c(OCC)cc1NC(=O)C1CC(=O)N(c2ccccc2OCC)C1 (stereo not drawn),5,/,-2,3,0.4,-1,-7,/,-0.9,-0.1
O=c1nc(N2CCCCCC2)nc(N2CCCCCC2)[nH]1,8,17,/,/,/,6,-6,-3,1.5,1.6
CCC1(C)COC(C)(CC(=O)NNC(=O)Nc2ccccc2)OC1 (stereo not drawn),0,-10,/,/,/,-6,5,-6,0.2,-0.9
O=C(CSc1n[nH]c(-c2ccccc2)n1)NC1CCCCC1,-13,-1,0,-6,5.2,-5,2,7,-0.7,0.2
Cc1ccc(C(Sc2ccccc2)C(Cn2cncn2)C(=O)c2ccccc2)cc1 (stereo not drawn),7,-1,/,/,/,-8,6,-1,-0.3,-0.8
Nc1c(C(=O)NCc2ccco2)sc2nc(N3CCOCC3)c3c(c12)CCCC3,14,5,/,/,/,2,7,7,5.1,0.0
O=C(Nc1nnc(CCOCCOCCc2nnc(NC(=O)c3ccco3)s2)s1)c1ccco1,6,-24,6,8,-3.4,3,-1,5,17,0.9
CCOc1cc(CNCCc2ccc(S(N)(=O)=O)cc2)ccc1OCC(=O)NC(C)(C)C,-2,/,/,/,/,1,-4,-2,-2.2,0.6
Cc1cccc2c3c([nH]c12)CCNC3,-5,-2,24,9,4.0,-3,-1,3,2.4,1.2
CCOC(=O)C(=CNc1ccc(Oc2cccnc2)nc1)C(=O)OCC,-3,3,5,5,-1.5,-4,-12,2,-6.7,0.4
Cc1cccc(Nc2ccccc2C(=O)O)c1C,-6,5,-25,-63,-1.3,/,/,/,1.5,/
COc1cc(/C=N/NS(=O)(=O)c2ccc3ccccc3c2)ccc1OCCN1CCOCC1,-7,2,/,/,/,/,99*,5,2.7,-0.7
CCCCN(CCO)CCCC,-7,/,3,5,0.4,1,-6,/,-19,-0.2

# Only part of the results is shown (hit frequency here may not be typical).
